# HNF4A DNA FP: change in binding of human HNF4A to DNA, primary screen, biochemical, fluorescence polarization, FITC-DNA; Hepatocyte nuclear factor 4-alpha (Homo sapiens), P41235; 1 h; activity change, % at 10 µM; hit rate 0.3% among 360,000; in the data active = activity change above about 30%, passing the limit was not always enough;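 also: controls were the assay level and a saturating level of protein; the project sought stronger binding though the title names inhibitors; some compounds called inactive have numbers as strong as hits; positive values seem to mean higher polarization but the record does not say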
# AF4-AF9 inh: inhibitors of AF4 peptide binding to AF9, primary screen, biochemical, AlphaScreen, biotin-AF4 peptide, FLAG-AF9, single point; hit rate 0.47% among 350,000; inhibition, % at 10 µM;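 active = every replicate reaching a set inhibition limit, whatever the replicate mean, cut at about 25% in these data; inconclusive = mean inhibition reaches that limit but some replicates miss it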;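 also: 0% = plate neutral control median and 100% = total signal loss; the record names both 10 and 1 µM as test concentration; the first replicate is given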
# Target sequence (P42568 whole entry, looked up): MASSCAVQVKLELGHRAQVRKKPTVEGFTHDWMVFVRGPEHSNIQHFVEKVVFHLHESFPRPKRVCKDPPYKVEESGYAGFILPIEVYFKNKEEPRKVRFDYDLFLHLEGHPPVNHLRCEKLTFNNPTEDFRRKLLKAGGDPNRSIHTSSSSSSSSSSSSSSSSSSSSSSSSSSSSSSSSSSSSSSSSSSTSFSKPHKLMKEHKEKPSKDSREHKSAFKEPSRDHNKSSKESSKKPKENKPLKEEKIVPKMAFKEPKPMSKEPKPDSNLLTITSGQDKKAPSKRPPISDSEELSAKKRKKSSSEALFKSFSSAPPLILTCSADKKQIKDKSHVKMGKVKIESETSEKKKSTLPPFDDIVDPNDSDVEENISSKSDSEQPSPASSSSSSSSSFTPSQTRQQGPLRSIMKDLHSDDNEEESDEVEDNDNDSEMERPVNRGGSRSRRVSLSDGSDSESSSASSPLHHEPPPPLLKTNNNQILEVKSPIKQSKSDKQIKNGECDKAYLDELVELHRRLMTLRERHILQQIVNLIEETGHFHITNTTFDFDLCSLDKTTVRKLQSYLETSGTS
# ALR H2O2 inh: inhibitors of human ALR sulfhydryl oxidase, primary screen, biochemical, H2O2 detection, HRP-luminol luminescence, single point; hit rate 3.8% among 290,000; FAD-linked sulfhydryl oxidase ALR (Homo sapiens), P55789; inhibition, % (concentration not given with the values); AID 485317, 2010; purified ALR, DTT oxidation;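 active = mean and each replicate at 75% or more; inconclusive = only one of the two met; inactive = neither met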;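 also: stock transfer was 7.5 nL into about 7.5 µL; 0% = neutral wells and 100% = wells with inactivated enzyme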
# Target sequence (P55789 whole entry, looked up): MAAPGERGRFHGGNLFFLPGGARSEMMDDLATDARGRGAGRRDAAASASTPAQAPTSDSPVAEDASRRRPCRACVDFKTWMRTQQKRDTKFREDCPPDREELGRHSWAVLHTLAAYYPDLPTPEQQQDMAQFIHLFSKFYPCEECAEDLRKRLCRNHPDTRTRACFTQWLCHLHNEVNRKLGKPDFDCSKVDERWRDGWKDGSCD
# FGF22 binding: binders of human FGF22 protein, primary screen, FGF22 synaptogenesis inhibitor project, biophysical, thermal shift, single point. AID 651658, 2012. Fibroblast growth factor 22 (Homo sapiens), Q9HCT0. recombinant FGF22 thermal shift, SYPRO orange fluorescence; percent of sucrose octasulfate shift, DMSO zero. hit rate 1.5% among 340,000. calls only at 9.99 µM;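 active = melting point raised past a set limit in the mean and every replicate; inconclusive = no clear call; three in four hits are not shown here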
# Target sequence (Q9HCT0 whole entry, looked up): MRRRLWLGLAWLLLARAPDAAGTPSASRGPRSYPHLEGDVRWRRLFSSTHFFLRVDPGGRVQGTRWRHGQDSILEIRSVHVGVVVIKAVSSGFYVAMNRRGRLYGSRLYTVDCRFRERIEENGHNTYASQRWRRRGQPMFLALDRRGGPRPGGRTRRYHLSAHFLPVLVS
# Vif TR-FRET: inhibitors of Vif binding to APOBEC3G peptide, primary screen, biochemical, TR-FRET, GST-Vif 1-94, biotin-A3G peptide, dose response retest (AID 1117319) | Virion infectivity factor (Human immunodeficiency virus type 1 group M subtype B (isolate … | TR-FRET GST-Vif / biotin-A3G peptide binding; higher % means a stronger effect; test concentration not given here; strong numbers were not always called active | inhibition, %; hits with a dose series show IC50 in µM | hit rate 0.57% among 260,000;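 active = above the screen mean plus three standard deviations and confirmed in dose response; inconclusive = results disagree or hit not tested in dose response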;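 also: Vif residues 1-94 fused to GST binding biotinylated APOBEC3G peptide 110-148; 0% = full assay without inhibitor and 100% = GST in place of GST-Vif; retest series ran down from 100 µM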
# E coli growth: E. coli growth inhibition, primary screen, OD600; hit rate 0.21% among 330,000; AID 1053175, 2014; Escherichia coli growth, 23 h; hits give low values; OD600 absorbance (no concentration beside the values);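 active = OD600 absorbance below the run mean of sample wells minus 3.6 SD, in any replicate, cut at about 0.56 in these data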;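 also: stock transfer was 300 nL into about 60 µL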
# rRNA inh HTS: reduced GFP signal of wild-type E. coli, primary screen, bacterial rRNA inhibitor project, GFP/RFP fluorescence, OD600, single point | E. coli WT GFP vs humanized-ribosome RFP mutants, 24 h; hits give low values; DMSO median 0, no signal -100 | hit rate 1.6% among 350,000 | GFP signal change (wild-type ribosome), % (test concentration not listed) | AID 720706, 2013;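 active = significant combined selectivity score with lowered wild-type GFP, culture density cut under 30%, mutant RFP and density less affected; inactive = any of these conditions unmet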; also: one replicate is shown; some compounds called inactive have numbers as strong as hits
# rRNA inh HTS OD600: second read-out of rRNA inh HTS, no call of its own (marks repeat the call); OD600 change, %; measured here: OD600 growth;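 optical density of the mix in the first replicate; 0 = DMSO median and -100 = no signal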
# rRNA inh HTS RFP: also measured in rRNA inh HTS; calls as there; RFP signal change, %; measured here: RFP humanized mutant strains;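 first replicate; 0 = DMSO median and -100 = no signal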
# * marks the source's active call; other numbers are inactive results; i = inactive; ? = inconclusive; / = no result given; & = joins results of further samples. This is a subset (hit frequency here may not be typical).
cpd	smiles	HNF4A DNA FP	AF4-AF9 inh	ALR H2O2 inh	FGF22 binding	Vif TR-FRET
1	CCN(CC(=O)Nc1c(F)cccc1F)C(=O)C1CCN(c2ncnc3sc(C)c(C)c23)CC1	-1.0	1.3	-2	i	5%
2	CC1(c2nnc(-c3ccccc3)o2)CC(c2c(Cl)cccc2Cl)=NO1 (stereo not drawn)	-0.5	0.1	1	i	/
3	C[C@H]1CCCCO[C@H](CN(C)S(=O)(=O)c2cn(C)cn2)[C@@H](C)CN([C@@H](C)CO)C(=O)c2cc(NC(=O)Nc3ccc4c(c3)OCO4)ccc2O1	/	3.7	/	i	/
4	CC(NCCC(c1ccccc1)c1ccccc1)c1ccccc1 (stereo not drawn)	4.4	2.8&5.8	-5	i	-11%
5	CCN1CCN(CCOc2ccc(Cl)cc2)CC1	0.5	-0.7	-2	i	15%
6	CCN(CC(=O)Nc1ccccc1OC)C(=O)c1cccc(-n2cccc2)c1	2.3	-1.2	6	i	1%
7	COc1ccccc1CC(NC(C)=O)C(=O)NC1CCN(S(=O)(=O)c2ccccc2)CC1 (stereo not drawn)	2.5	-0.3	/	i	6%
8	COc1ccc(CNc2nc3ccccc3n2C)c(O)c1	0.7	1.0	/	i	66%
9	Cc1ccc(NC(=O)CN(C)S(=O)(=O)c2cccs2)cc1F	-0.5	/	14	/	4%
10	Cc1ccc(NC(=O)COC(=O)c2cccc(C)c2[N+](=O)[O-])cc1S(=O)(=O)N1CCCCC1	-0.7	1.1	-11	i	/
11	C/C(=N/NS(=O)(=O)c1ccc(Br)cc1)c1ccc(C)o1	-0.8	2.9	98*	i	/
12	C[C@@H]1CN([C@@H](C)CO)C(=O)c2cccc(NC(=O)c3cnccn3)c2O[C@H]1CN(C)CC1CCCCC1	/	-4.4	/	i	/

cpd	E coli growth	rRNA inh HTS	rRNA inh HTS OD600	rRNA inh HTS RFP
1	0.7	-4	-19	2.0
2	/	-29*	-20*	-5.8*
3	/	-2	-9	-1.9
4	0.59	/	/	/
5	0.66	3	9	-1.1
6	0.72	-9	-5	1.0
7	0.67	13	8	1.6
8	0.66	-13	-21	-1.9
9	0.69	/	/	/
10	0.76	-6	1	2.8
11	/	16	8	-7.1
12	/	1	7	-1.6

# (further entries)
cpd	smiles	HNF4A DNA FP	AF4-AF9 inh	ALR H2O2 inh	FGF22 binding	Vif TR-FRET
13	O=C(COC(=O)c1ccc(Br)cc1)NCc1ccccc1	-1.7	/	2	/	-6%
14	Cc1noc(C)c1S(=O)(=O)Nc1ccc2c(c1)C(=O)N([C@H](C)CO)C[C@@H](C)[C@H](CN(C)Cc1ccncc1)OCCCC[C@H](C)O2	/	0.8	/	i	/
15	O=C(C[C@@H]1CC[C@@H](NS(=O)(=O)c2ccc(F)cc2)[C@@H](CO)O1)NCCc1ccncc1	/	0.8	/	i	/
16	COc1ccccc1NC(=O)COC(=O)Cn1cnc2c1c(=O)n(C)c(=O)n2C	-2.6	-0.7	-5	i	/
17	COc1cc(CCCN2C(=O)C(=O)NC[C@@H]2c2ccccc2)cc(OC)c1OC	1.0	-1.2	/	i	-1%
18	O=C(C[C@@H]1C[C@H]2c3cc(NC(=O)C4CCC4)ccc3O[C@H]2[C@H](CO)O1)NCc1ccc(-c2ccccc2)cc1	/	0.7	/	i	/
19	COc1ccc(C(CC(=O)N2CCCC2)C(C)C)cc1 (stereo not drawn)	-4.7	1.9	/	i	-6%
20	CC1CC(C)CN(S(=O)(=O)c2ccc3c(c2)oc(=O)n3CC(=O)NCc2cccnc2)C1 (stereo not drawn)	0.8	2.0	32	i	/
21	CCOc1ccccc1Nc1nnc(C)c(=O)[nH]1	3.5	/	-6	/	16%
22	CCCc1cc2c(cc1N(C)S(=O)(=O)c1ccccc1)OCO2	-1.2	-3.2	/	i	-6%
23	CC(=O)c1sc(-c2ccccc2Cl)nc1C	0.8	-1.5	/	i	0%
24	CCC1CCc2sc(C(=O)N3CCCN(C)CC3)cc2C1 (stereo not drawn)	0.1	1.7	-2	/	-2%

cpd	E coli growth	rRNA inh HTS	rRNA inh HTS OD600	rRNA inh HTS RFP
13	0.7	/	/	/
14	/	4	-1	1.2
15	/	-1	3	3.2
16	0.69	/	/	/
17	/	-8	-2	1.3
18	/	1	-27	30
19	0.63	4	10	-0.2
20	0.71	6	-1	-2.8
21	0.66	/	/	/
22	0.72	-44	-63	-2.3
23	0.67	6	-6	-4.4
24	0.68	9	6	7.0

# Continued.
cpd	smiles	HNF4A DNA FP	AF4-AF9 inh	ALR H2O2 inh	FGF22 binding	Vif TR-FRET
25	Oc1ccc2ccccc2c1/C=C/c1ccc2c(Br)cc(Br)c(O)c2n1	13	4.3	/	i	16%
26	Cc1ccc(S(=O)(=O)N(C)C[C@@H]2Oc3c(NC(=O)NC4CCCCC4)cccc3C(=O)N([C@@H](C)CO)C[C@@H]2C)cc1	/	0.6	/	i	/
27	CCOC(=O)C1CCN(C(=O)Cn2cc(C(=O)c3ccco3)c3ccccc32)CC1	0.2	3.1	3	i	0%
28	C[C@@H]1CN([C@@H](C)CO)C(=O)c2cc(C#CC3CC3)cnc2O[C@H]1CN(C)C	/	-0.7	/	i	/
29	C=CCC1C=C(Cc2ccccc2)CC(CC=C)N1 (stereo not drawn)	3.9	7.2	-3	i	19%
30	COc1ccc(NC(=O)/C(C#N)=C\c2cc(OC)c(OCc3ccc(C(=O)O)cc3)cc2Br)cc1	3.1	-0.6	98*	i	5%
31	C=CCN1c2ccccc2[C@]23C[C@@H](C(=O)OC)N(C(=O)C4CCC4)C2=NC(C(=O)OC)=C(C(=O)OC)[C@H]13	1.1	6.1	2	i	/
32	CC(C)C#Cc1ccc2c(c1)O[C@H](CN(C)CC1CCOCC1)[C@@H](C)CN([C@@H](C)CO)S2(=O)=O	/	6.0	/	i	/
33	O=C(Cc1ccccc1)NNS(=O)(=O)c1ccccc1[N+](=O)[O-]	2.3	3.6	/	i	/
34	N#Cc1c(NC(=O)/C=C/C(=O)O)sc2c1CCN(Cc1ccccc1)C2	26	-0.4	-12	i	3%
35	N#C/C(=C\c1ccc(Cl)cc1)C(=O)NC1CC1	2.4	5.7	5	i	/
36	CCOc1ccccc1C1CC(=O)Nc2cc(OC)c(OC)c(OC)c21 (stereo not drawn)	3.4	/	-28	/	-7%

cpd	E coli growth	rRNA inh HTS	rRNA inh HTS OD600	rRNA inh HTS RFP
25	/	-7	-11	4.8
26	/	-5	-3	1.8
27	0.66	4	0	-2.8
28	/	5	10	-1.7
29	0.68	7	1	3.7
30	/	-2	0	0.2
31	/	18	3	0.8
32	/	-12	-51	33
33	0.68	-3	7	-1.7
34	0.62	18	11	5.6
35	0.7	7	7	2.6
36	0.78	/	/	/

# Going on with the list:
cpd	smiles	HNF4A DNA FP	AF4-AF9 inh	ALR H2O2 inh	FGF22 binding	Vif TR-FRET
37	CCCN(CCC)C(=O)Cn1c(=O)n(CCC(=O)NCCc2ccccc2)c(=O)c2ccccc21	1.1	/	/	/	-8%
38	COC(=O)C[C@@H]1CC[C@@H]2[C@H](COc3ccc(NC(=O)Nc4cccc(C#N)c4)cc3C(=O)N2C)O1	/	-1.0	/	i	/
39	COc1ccc(NC(=S)N(CCCN2CCN(C)CC2)Cc2cccs2)cc1	-2.6	/	-5	/	/
40	Cc1ccc(S(=O)(=O)N(C)CC(=O)N2CCOCC2)cc1	-2.9	/	-14	/	-2%
41	O=C(NCc1ccco1)C(=O)NCC1OCCN1S(=O)(=O)c1ccccc1 (stereo not drawn)	-1.6	-5.4	/	i	?
42	Cc1cccc2c(=O)n3c(nc12)CCCCC3	-2.3	1.8	-4	/	-4%
43	CCC(=O)Nc1c(-c2ccc(C)cc2)c(=O)c2ccccc2n1C	1.2	-1.2	4	i	0%
44	COc1ccc(F)cc1-c1cc(C(=O)NCc2cccc(Cl)c2)[nH]n1	6.3	-3.0	/	i	/
45	CSc1nnc2ccc(-c3ccc(C)cc3)nn12	-5.1	-0.1	-2	i	/
46	C=CCn1c(SCC(=O)N2CCc3ccccc3C2)nc2sc(C)c(C)c2c1=O	-0.4	1.1	1	i	/
47	Cc1ccc(C(=O)N/C(=C\c2cn(S(=O)(=O)N(C)C)c3ccccc23)C(=O)NCCN2CCOCC2)cc1	0.7	5.0	/	i	/
48	NC(=O)C1CCCN(C(=S)Nc2cccc3ccccc23)C1 (stereo not drawn)	1.4	-6.2	-22	i	/

cpd	E coli growth	rRNA inh HTS	rRNA inh HTS OD600	rRNA inh HTS RFP
37	0.7	/	/	/
38	/	-3	-1	2.6
39	0.66	/	/	/
40	0.73	/	/	/
41	0.76	2	13	-1.9
42	0.71	/	/	/
43	0.67	8	12	2.3
44	/	-18	-56	11
45	0.66	-7	-17	-2.3
46	0.69	-17	-22	-2.2
47	0.67	-10	-19	1.6
48	0.66	-17	-29	-6.5

# Ordered by molecular weight (lowest first): part of the list above
cpd	smiles	HNF4A DNA FP	AF4-AF9 inh	ALR H2O2 inh	FGF22 binding	Vif TR-FRET
42	Cc1cccc2c(=O)n3c(nc12)CCCCC3	-2.3	1.8	-4	/	-4%
45	CSc1nnc2ccc(-c3ccc(C)cc3)nn12	-5.1	-0.1	-2	i	/
40	Cc1ccc(S(=O)(=O)N(C)CC(=O)N2CCOCC2)cc1	-2.9	/	-14	/	-2%
48	NC(=O)C1CCCN(C(=S)Nc2cccc3ccccc23)C1 (stereo not drawn)	1.4	-6.2	-22	i	/
43	CCC(=O)Nc1c(-c2ccc(C)cc2)c(=O)c2ccccc2n1C	1.2	-1.2	4	i	0%
44	COc1ccc(F)cc1-c1cc(C(=O)NCc2cccc(Cl)c2)[nH]n1	6.3	-3.0	/	i	/
41	O=C(NCc1ccco1)C(=O)NCC1OCCN1S(=O)(=O)c1ccccc1 (stereo not drawn)	-1.6	-5.4	/	i	?
39	COc1ccc(NC(=S)N(CCCN2CCN(C)CC2)Cc2cccs2)cc1	-2.6	/	-5	/	/
46	C=CCn1c(SCC(=O)N2CCc3ccccc3C2)nc2sc(C)c(C)c2c1=O	-0.4	1.1	1	i	/
47	Cc1ccc(C(=O)N/C(=C\c2cn(S(=O)(=O)N(C)C)c3ccccc23)C(=O)NCCN2CCOCC2)cc1	0.7	5.0	/	i	/

cpd	E coli growth	rRNA inh HTS	rRNA inh HTS OD600	rRNA inh HTS RFP
42	0.71	/	/	/
45	0.66	-7	-17	-2.3
40	0.73	/	/	/
48	0.66	-17	-29	-6.5
43	0.67	8	12	2.3
44	/	-18	-56	11
41	0.76	2	13	-1.9
39	0.66	/	/	/
46	0.69	-17	-22	-2.2
47	0.67	-10	-19	1.6

# Screens (PubChem BioAssay)
